Mtb hypoxia inh: reduces hypoxia-regulated biosensor signal in M. tuberculosis; fluorescence inhibition, % (no concentration beside the values); AID 1159583; actives 0.1% (n = 300,000); M. tuberculosis hypoxia-regulated fluorescent reporter, fluorescence;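 active = 35 to 45% if threefold the growth effect, above 45% if 1.5-fold the growth effect; inactive = the rest, general growth blockers included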;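 note: wells of about 50 µL received 100 nL stock; 0% = vehicle wells and 100% = reference inhibitor wells; whole bacteria with a GFP reporter of the hypoxia response; strong numbers were not always called active; many hits fall short of the cut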
RN4220 kill: kills Staphylococcus aureus RN4220 | AID 1259311 | S. aureus RN4220 growth, OD600, 16 h | inhibition, % (no concentration beside the values) | actives 0.33% (n = 330,000);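 active = z-score of -3 or lower and OD600 up to 0.18 on both plates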;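 note: plate controls were untreated cells for no effect and reference antibiotic for full effect; stock transfer was 100 nL into about 80 µL; one replicate is shown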
Autofluor counter: counter-screen for toxin protease inhibitors: compound fluorescence. actives 3.1% (n = 360,000). AID 624483. fluorescence intensity (concentration not given with the values). compound autofluorescence counterscreen, microsphere flow cytometry; hits give high values;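 active = at least 3 SD above the mean of all compounds, about 16000 in these data; inconclusive = too few beads counted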;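 note: 100 nL of 1 mM stock went into each well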
BJeLR lethal: BJeLR cell viability loss | BJeLR (HRASV12) viability, CellTiter-Glo ATP luminescence, 48 h; reference of the scale not given here | inhibition, % (no concentration beside the values) | actives 0.17% (n = 300,000) | AID 1554;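 active = replicate mean above 50%; inconclusive = above 50% but judged a plate artefact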;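 note: 50 nL library stock added to about 25 µL; numbers are from one replicate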
ugtP null kill: growth inhibition of S. aureus ugtP deletion strain. S. aureus RN4220 ugtP deletion, OD600 growth, 16 h; some inactives read as strong as hits. growth inhibition, % (no concentration beside the values). actives 0.54% (n = 330,000). AID 1259309;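 active = z-score under -3 and OD600 up to 0.15 on both plates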;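 note: plate controls were untreated wells for no effect and antibiotic for full effect; wells of about 80 µL received 100 nL stock; the first replicate is given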
PrP 5UTR inh: inhibition of PrP 5' UTR reporter expression; inhibition, % (no concentration beside the values); cell-based PrP 5' UTR mRNA reporter, plate reader; actives 0.35% (n = 340,000);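 active = every replicate at 50% or more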;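 note: 0 = median of the neutral control wells; tested in H4 reporter cells; numbers are from one replicate; inactives centre near -14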
Mtb hypoxia inh growth: also measured in Mtb hypoxia inh; calls as there; growth inhibition, %; measured here: M. tuberculosis growth (absorbance);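 0% = vehicle and 100% = reference antibiotic; read after six days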
* hit, by the source's call; ? = inconclusive; nt = not tested or not shown.

Results follow in this order: Mtb hypoxia inh	Mtb hypoxia inh growth	RN4220 kill	Autofluor counter	BJeLR lethal	ugtP null kill	PrP 5UTR inh
> COc1ccc(Br)cc1CN(C)C(=O)Cc1ccc(OC)c(S(=O)(=O)N2CCOCC2)c1
 : 8	5	4.5	6145	nt	6	-13
> c1ccc2c(-c3nc(-c4ccncc4)no3)cccc2c1
 : 6	0	6.4	8028	8	-13	-37
> CC(C)CCn1c(C(C)O)nc2ccccc21 (configuration not stated)
 : 25	-23	-17	2835	nt	1	-8
> CC1CCN(C(=O)Cn2c(SCC(=O)Nc3nccs3)nc3ccccc32)CC1
 : 7	6	12	10754	2	-3	-15
> COc1cc(OC)cc(C(=O)NNC(=O)c2ccccn2)c1
 : -5	-5	2.6	2020	11	-5	-67
> COCCNC(=S)N/N=C/c1ccc(OCc2ccc(C(=O)OC)cc2)cc1
 : nt	nt	nt	2610	14	nt	-23
> CCOc1ccccc1NC(=O)Nc1ccon1
 : -7	3	6.7	4564	-9	3	-22
> COc1ccc(-c2cc3c(=O)n(CC(=O)NCc4ccccc4F)ncn3n2)cc1
 : 3	10	-9.0	5699	-18	-10	-25
> CCN(CC)C(=O)c1c([N+](=O)[O-])c(C(C)(C)C)nn1C
 : 0	-13	-1.3	2242	-3	1	3
> CCOC(=O)C1C2COc3ccccc3C2N2C(=O)c3ccccc3NC(=O)[C@@]12C (some centres not stated)
 : 2	2	2.9	nt	nt	6	nt
> Cc1cc(C)c(C)c(S(=O)(=O)NCC(=O)NCc2ccco2)c1C
 : 4	5	1.7	7695	8	7	-12
> O=C(NCC1CCCN(C(=O)c2cscn2)C1)c1ccc(-c2ccccc2)cc1 (configuration not stated)
 : 8	8	-4.7	2124	-1	13	-19
> CC(C)c1ccc(S(=O)(=O)N2CCN(C(=O)CCNC(=O)Nc3ccccc3)CC2)cc1
 : -5	-9	1.1	3729	nt	3	-52
> NS(=O)(=O)c1ccc(CCNC(=O)CSc2nc3ccsc3c(=O)n2CCCCCC(=O)O)cc1
 : 5	10	-0.8	3267	-2	2	-22
> COc1ccccc1N1Cc2ccccc2C1
 : 8	0	17	?	-8	-8	-13
> Cc1ccc2[nH]c(=O)c(CN(Cc3cccnc3)Cc3nnnn3CCN3CCOCC3)cc2c1
 : 15	8	5.8	5279	2	6	-20
> Cc1ccc(-c2ccc(=O)n(CC(=O)N3CCN(c4cc(Cl)ccc4C)CC3)n2)cc1
 : 3	3	-2.3	12146	-5	-23	-24
> Cc1ccc(CSc2[nH]c(=O)ncc2C)cc1
 : 7	0	0.8	5965	-6	1	0
> CCC(=O)Nc1ccc(N/C(N)=N/c2nc(C)cc(C)n2)cc1
 : 5	-5	-0.5	5331	6	3	-21
> Cc1nc(N)sc1-c1csc(NCc2ccccc2)n1
 : nt	nt	4.4	2727	7	0	-6
> CC(C)C(NS(=O)(=O)/C=C/c1ccccc1)C(=O)NCc1ccc(F)cc1 (configuration not stated)
 : -1	3	-0.7	3281	-8	8	-27
> O=C(COC(=O)c1ccccc1O)Nc1ccc2ccccc2c1
 : 3	4	-1.4	2753	nt	1	-22
> COC(=O)c1ccc(CSc2nc3ccccc3c(=O)n2-c2cccc(OC)c2)o1
 : -6	5	16	9953	5	-20	1
> CCCCOC(=O)Cn1c(=O)c2c(nc(Br)n2Cc2ccccc2)n(C)c1=O
 : 6	9	2.2	8703	-9	12	-17
> CC(C(=O)O)n1c2ccccc2c2cn[nH]c(=O)c21 (configuration not stated)
 : -9	6	2.1	3849	-2	2	-13
> N#CC1=C(N)Oc2c(sc3ccccc23)C1c1ccco1 (configuration not stated)
 : nt	nt	-1.5	9317	12	-4	-30
> CC1CSc2n(-c3cccc(C(F)(F)F)c3)cc(-c3ccccc3)[n+]21 (configuration not stated)
 : 19	1	2.0	3958	2	2	-14
> Cc1nnsc1C(=O)NNc1ccc(Cl)cc1
 : 6	3	2.8	9303	2	3	0
> Cc1nonc1NC(=O)c1oc2ccccc2c1C
 : -6	-1	3.3	5755	5	0	-24
> Cc1nn(C)c(C)c1C1C(C#N)=C(N)Oc2n[nH]c(C)c21 (configuration not stated)
 : -1	8	-3.8	10415	8	-3	-24

(next part)
Results follow in this order: Mtb hypoxia inh	Mtb hypoxia inh growth	RN4220 kill	Autofluor counter	BJeLR lethal	ugtP null kill	PrP 5UTR inh
> NS(=O)(=O)c1ccc(CCNC(=O)C2CCN(S(=O)(=O)c3cnc[nH]3)CC2)cc1
 : 8	8	6.7	5652	3	13	-29
> COc1ccc(/C=N/NC(=O)C[n+]2ccccc2)c(OC)c1OC
 : nt	nt	nt	2216	0	nt	-3
> CN1CCN(CCc2nc3cc(NC(=O)COc4ccc([N+](=O)[O-])cc4)ccc3n2C)CC1
 : -3	-2	-5.4	5014	-9	-6	-4
> COc1ccc(-c2ccc(SCC(=O)NCc3ccco3)nn2)cc1OC
 : -18	-4	-2.5	9608	7	-4	-30
> Cc1nc2cc(NC(=O)c3ccc(S(=O)(=O)N(C)c4ccccc4)cc3)ccc2o1
 : 15	0	4.5	3618	14	-6	-47
> CC(=O)Nc1cc(C(=O)N2CCc3ccccc3C2)ccc1Sc1ccc(C)cc1
 : 1	12	-2.5	1914	0	-14	7
> O=C1C(c2ccccc2)C(c2ccccc2)NC(c2ccccc2)C1c1ccccc1 (configuration not stated)
 : 17	12	0.6	4178	10	-8	1
> COc1ccc(C(=O)Nc2ccccc2-c2nnn(CC(=O)NCc3ccco3)n2)cc1
 : -1	3	-5.0	3703	-3	-10	-31
> CC(=O)Nc1ccc(C2C(C)CCC3C(=O)N4C(CCC(C)C4c4ccc(NC(C)=O)cc4)C(=O)N32)cc1 (configuration not stated)
 : 4	-4	8.9	nt	nt	9	nt
> CCOC(=O)C/C(C)=N/NC(=O)CN(c1ccc(Br)cc1)S(=O)(=O)c1ccccc1
 : nt	nt	nt	10780	6	nt	-23
> CCNC(=O)NC(=O)C(C)OC(=O)C1CCN(S(=O)(=O)c2ccc(C)c(C)c2)CC1 (configuration not stated)
 : -10	13	-1.5	2377	18	-1	2
> S=C(N/N=C/c1cccs1)NC1CC2CCC1C2 (configuration not stated)
 : nt	nt	nt	4626	-7	nt	-25
> Cc1cccc(COc2ccc(S(=O)(=O)N3CCOCC3)cc2[N+](=O)[O-])c1
 : 4	1	1.1	?	nt	5	-25
> C=CCOc1ccc(/C=C/C(=O)OCC(=O)Nc2c(C)n(C)n(-c3ccccc3)c2=O)cc1
 : 6	1	5.7	5452	-1	10	-14
> O=C(c1cccc(C(=O)N2CCc3ccccc32)n1)N1CCc2ccccc21
 : 10	7	-12	2555	0	-1	-7
> Cc1ccc(S(=O)(=O)N2CCCC2C(=O)Nc2nccs2)cc1 (configuration not stated)
 : nt	nt	-3.2	3716	7	0	-10
> O=C(CCCn1c(SCc2cccc([N+](=O)[O-])c2)nc2ccccc2c1=O)NCC1CCCO1 (configuration not stated)
 : -7	12	-17	4259	0	-9	-10
> CCN(CC(=O)NCc1ccc(Cl)cc1)C(=O)/C=C/c1ccccc1
 : 4	-4	-7.0	3681	0	32	-20
> O=C(CSCC(=O)Nc1ccccc1)N/N=C/c1c(O)ccc2ccccc12
 : nt	nt	nt	23512*	11	nt	33
> CCOC(=O)c1c(=O)n(O)c2ccc(C)cc2[n+]1[O-]
 : 6	15	4.9	3479	6	-2	-11
> O=C(COC(=O)COc1ccc(Br)cc1)NCc1ccc2c(c1)OCO2
 : 4	8	4.0	3936	nt	3	-3
> O=C(CCCc1c[nH]c2ccccc12)N1CCN(c2ccc(N3CCOCC3)nn2)CC1
 : 3	3	9.8	4503	6	-3	1
> CCOc1ccc(S(=O)(=O)NC(=O)c2ccccc2)cc1
 : -3	-3	4.2	4807	1	2	-16
> Cc1csc(NC(=O)CCC(=O)N(CC(=O)NC2CCCC2)Cc2ccco2)n1
 : nt	nt	-0.5	4792	7	14	-2
> O=C(O)COc1ccc2nsnc2c1Cl
 : nt	nt	0.6	2317	-3	1	-50
> CCn1cc(C(=O)Nc2cc(C)ccc2C)c(=O)c2ccc(C)nc21
 : -3	-30	1.7	nt	6	0	nt
> Clc1ccc(C2=NN=C3COc4ccccc4N3C2)cc1
 : 6	6	4.3	2622	-10	-5	-19
> CCOC(=O)C1=C(C)NC2=C(C(=O)c3ccccc32)C1c1cccc2ccccc12 (configuration not stated)
 : 8	5	-2.3	2535	-13	34	-5
> COc1cccc(CNC(=O)CCCC(=O)NC(C)CCc2ccccc2)c1 (configuration not stated)
 : 11	20	0.6	4033	-1	3	-3
> O=C(CCNC(=O)N1CC(=O)Nc2ccccc21)Nc1ccc(F)c(Cl)c1
 : 2	4	-8.7	5021	7	-11	-28

Compounds shown so far that contain a COOH group:
Results follow in this order: Mtb hypoxia inh	Mtb hypoxia inh growth	RN4220 kill	Autofluor counter	BJeLR lethal	ugtP null kill	PrP 5UTR inh
> NS(=O)(=O)c1ccc(CCNC(=O)CSc2nc3ccsc3c(=O)n2CCCCCC(=O)O)cc1
 : 5	10	-0.8	3267	-2	2	-22
> CC(C(=O)O)n1c2ccccc2c2cn[nH]c(=O)c21 (configuration not stated)
 : -9	6	2.1	3849	-2	2	-13
> O=C(O)COc1ccc2nsnc2c1Cl
 : nt	nt	0.6	2317	-3	1	-50

Continuation.
Results follow in this order: Mtb hypoxia inh	Mtb hypoxia inh growth	RN4220 kill	Autofluor counter	BJeLR lethal	ugtP null kill	PrP 5UTR inh
> O=C(O)CCCNC(=O)c1cncc(Br)c1
 : nt	nt	2.4	2767	-3	-1	-8
> COc1ccccc1N1CCN(C(=O)C(NS(=O)(=O)c2cccs2)c2ccccc2)CC1 (configuration not stated)
 : 6	6	7.5	16978*	nt	5	-5
> Cc1noc(NS(=O)(=O)c2ccc(NC(=O)CCN3C(=O)c4ccccc4C3=O)cc2)c1C
 : 2	8	1.9	4349	-13	4	-24
> O=C(CS(=O)(=O)c1ccc(F)cc1)Nc1nccs1
 : 2	4	1.8	5925	-2	5	-4
> O=C(CCc1nc2ccccc2c(=O)[nH]1)OCCOc1ccc(Cl)cc1
 : 0	-6	4.5	4494	2	7	-23
> CC(=NNC(=O)c1ccccc1O)c1ccc(Br)s1
 : 11	8	24	nt	nt	13	nt
> CC(=NNc1nccnc1Cl)c1ccc(F)cc1
 : 3	1	5.6	nt	nt	-5	nt
> COc1ccc(NC(=O)NC2CCCCC2C)cc1 (configuration not stated)
 : 3	5	1.2	2146	3	8	-24
> S=c1[nH]nc(COc2ccccc2)n1/N=C/c1cccs1
 : nt	nt	nt	2410	14	nt	-12
> CN(C(=O)Cc1ccc2c(c1)OCO2)C1CCCN(Cc2ccccc2F)C1 (configuration not stated)
 : nt	nt	nt	4011	-12	nt	-21
> C=CCN(c1ccc(C(=O)Nc2ccc3c(c2)n(C)c(=O)n3C)cc1)S(C)(=O)=O
 : -9	-14	0.9	3596	-1	8	-18
> O=C(Cn1nc(-c2ccco2)ccc1=O)Nc1ccc(Cl)c(Cl)c1
 : 8	10	-2.1	5758	-4	6	-10
> COc1ccc(-n2c(/C=C3\C(=O)N(C)c4ccccc43)nc3ccccc3c2=O)cc1
 : -1	-10	4.3	6151	-2	-3	-34
> CCn1c(C(=O)Nc2ccsc2C(=O)OC)cc2sc(Cl)cc21
 : 5	5	-12	4876	0	31	-28
> O=C(O)C1CCCCC1C(=O)Nc1ccc(Cl)cc1 (configuration not stated)
 : 9	6	5.8	25304*	-2	10	-45
> CN(Cc1cnn(C)c1)C(=O)C1CCC(=O)N(Cc2cccc(C(F)(F)F)c2)C1 (configuration not stated)
 : 0	-14	1.0	6767	-3	4	-13
> O=S(=O)(NCC1OCCc2ccccc21)c1ccc(S(=O)(=O)N2CCOCC2)cc1 (configuration not stated)
 : 3	-9	0.7	8993	-6	0	-10
> Cc1[nH]c(=S)sc1Cc1ccc(Cl)c(Cl)c1
 : 16	2	-3.4	nt	-8	3	nt
> O=C(COC(=O)c1ccccc1)Nc1cccc(S(=O)(=O)N2CCOCC2)c1
 : 12	0	14	4404	-6	-66	-15
> Cc1cc(C)nc(NS(=O)(=O)c2ccc(NC(=O)CSc3nc4ccccc4[nH]3)cc2)n1
 : 15	14	2.2	2401	-3	4	-9
> CC1(C(=O)NN=Cc2c(F)c(F)c(F)c(F)c2F)CC1(Cl)Cl (configuration not stated)
 : 10	1	4.7	nt	nt	-7	nt
> CCOc1ccccc1NC(=O)CCNS(=O)(=O)c1ccc2[nH]c(=O)oc2c1
 : 1	-17	0.3	5987	0	-1	-2
> O=C(CSc1ccc(-c2ccc(Br)cc2)nn1)NC1CCCC1
 : 4	2	-0.9	4716	-9	-1	-9
> CCN1CCN(Cc2ccc(NC(=O)Nc3ccccc3Cl)cc2)CC1
 : nt	nt	2.6	5020	10	2	-50

Screening results (PubChem)
